# Source: PubChem BioAssay
# CtBP-E1A inh: qHTS Assay for Inhibitors of the CtBP/E1A Interaction; 340,000 compounds, 0.49% hits; AID 651724, 2012; AlphaScreen GST-E1A/His-CtBP binding, 1536-well; hits give low values; control for the full effect not named in the record; CtBP / adenovirus E1A interaction (AlphaScreen); activity change, % (no concentration beside the values); in the data active means activity change below about -65%; inconclusive means about -30% to -65%; inactive means above about -30%; note: % is set by controls: 0 for no effect and ±100 for the full control effect
#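 Protein mix (5X: 125 nM each GST-E1A, His-CtBP) was incubated with pinned compound 2 h at 37 deg C in dark, in 50 mM Tris pH 8.0 buffer with 300 mM NaCl. Glutathione donor and nickel acceptor beads followed; AlphaScreen signal read after 1 h.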
# Sfp PPTase inh: qHTS Assay for Inhibitors of Bacillus subtilis Sfp phosphopantetheinyl transferase (PPTase) | 4'-phosphopantetheinyl transferase ffp (Bacillus subtilis), Q9F4F7 | Biochemical Sfp PPTase activity, qHTS | AID 1490, 2009 | Potency, µM, for inactives: max response, negative = inhibition, usual class: inhibitors | 310,000 compounds, 3.5% hits; active = well fitted inhibition curve with a large enough effect; inconclusive = small, poorly fitted or top-dose-only effect, or another doubt; inactive = no such curve, though single readings can be large or run the other way;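 note: the enzyme is Sfp with the accession as filed and its product quenches rhodamine fluorescence; potency is the fitted concentration of half-maximal effect; 0% = enzyme reaction without inhibitor and -100% = no enzyme wells; top concentration of the series not given in the record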
#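 Fluorescence-quenching assay: 15 nM Sfp-PPTase preincubated 15 min at room temperature with compound, then 5 uM rhodamine-CoA and 12.5 uM BHQ-2-labelled YbbR peptide added. Fluorescence (ex 525/em 598 nm) read at start and after 30 min; difference gives rate.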
# ClpP mod: qHTS Assay for Activators of ClpP. ATP-dependent Clp protease proteolytic subunit (Bacillus subtilis (strain 168)), P80244. purified B. subtilis ClpP, FRET peptide cleavage, 20 min. Potency, µM (highest dose often 57.5 µM), inactives show at the top dose activity change, negative = active. 340,000 compounds, 1.9% hits; active = well fitted falling curve with a large enough effect; inconclusive = small, poorly fitted or top-dose-only effect; inactive = no such curve, though single readings can be large or run the other way; note: potency is the fitted concentration of half-maximal effect; the source files actives as falling curves though it sought activators and does not explain the sign; nearly all actives have a fitted effect of over 65% in size; many hits overshoot -100%
# Target sequence (P80244 whole entry, looked up): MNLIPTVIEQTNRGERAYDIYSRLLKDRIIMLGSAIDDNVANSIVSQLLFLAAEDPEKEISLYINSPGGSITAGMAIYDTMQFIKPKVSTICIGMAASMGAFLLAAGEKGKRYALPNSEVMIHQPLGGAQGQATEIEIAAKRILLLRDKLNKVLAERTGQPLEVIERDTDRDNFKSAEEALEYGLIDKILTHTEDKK
#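 Purified B. subtilis ClpP, 10 microg/mL final in Tris/HCl pH8 with KCl, BSA, glycerol and Tween-20, cleaved an Abz/nitrotyrosine-quenched decapeptide. Fluorescence (ex 320, em 430) was read at 0 and 20 min at room temperature. Delta was normalized to 5.8 microM ADEP and DMSO/no-enzyme controls.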
# Menin MLL FP FL: qHTS Assay for Inhibitors Targeting the Menin-MLL Interaction in MLL Related Leukemias: Competition With Fluorescein Labeled MLL-derived Peptide | Fluorescence polarization, fluorescein-MLL peptide displacement from menin | FP activity change, % at 61.4 µM | 290,000 tested, under 10 active | AID 1766, 2009; inconclusive = falling polarisation curve, or a change in total fluorescence; inactive = total fluorescence flat and polarisation flat or rising; no compound was filed as active; the % refers to the polarisation; negative = inhibition;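 note: % of control where 0% means no effect; inhibitors lower the polarisation; unlabelled MLL peptide was the positive control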
# gsp ag: qHTS for Agonist of gsp, the Etiologic Mutation Responsible for Fibrous Dysplasia/McCune-Albright Syndrome: qHTS | gsp mutant cells, cAMP HTRF, 30 min; control for the full effect not named in the record | Potency, µM (highest dose often 76.9 µM), without a hit: top-dose activation (cAMP increase), most hits filed as activators | 340,000 compounds, 0.13% hits; active = well fitted activation curve with a large enough effect; inconclusive = small, poorly fitted or top-dose-only effect, or another doubt; inactive = no such curve, though single readings can be large or run the other way; cell line not stated here;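 note: phosphodiesterase inhibitor Ro 20-1724 added with compounds to block cAMP breakdown; potency is the fitted concentration of half-maximal effect; nearly all actives have a fitted effect of over 60% in size; about a fifth of the inactives were tested at one dose only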
#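 Cells in DMEM/10% FBS with G418 were pretreated with compounds in DMSO plus […] (300 uM stock) for 30 min at 37C. cAMP was measured by HTRF (cAMP-d2 plus anti-cAMP antibody-K) after 30 min at room temperature.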
# gsp antagonist: qHTS for Antagonists of gsp, the Etiologic Mutation Responsible for Fibrous Dysplasia/McCune-Albright Syndrome: qHTS. gsp-mutant cells, cAMP HTRF, 30 min; control for the full effect not named in the record. AID 624288, 2012. 340,000 compounds, 0.4% hits. Potency, µM (top dose mostly 76.9 µM), for the others: at the top dose activity change, negative = inhibition, actives largely listed as inhibitors; active = falling curve of any shape with a large fitted effect; inconclusive = falling curve, mostly with a smaller effect; inactive = flat or rising curve; cell line not stated here;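 note: intracellular cAMP measured with PDE inhibitor Ro 20-1724 present during compound exposure; potency is the fitted concentration of half-maximal effect; % is set by controls: 0 for no effect and ±100 for the full control effect; nearly all actives have a fitted effect of over 65% in size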
#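 Cells, 2000/well, grown 16–24 h in DMEM 10% FBS with 0.5 mg/ml G418, then compounds plus […] (300 uM addition stock), 30 min at 37C. cAMP read by HTRF (cAMP-d2 and anti-cAMP antibody-K in lysis buffer) after 30 min RT.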
# TRPV1 PAM: HTS Assay for Compounds that Act as Potentiators of the Vanilloid Receptor 1; 320,000 compounds, 0.02% hits; TRPV1-expressing cells, Fluo-8 calcium influx, capsaicin EC20 potentiation; host cell line not named in the record; control for the full effect not named in the record; AID 540277, 2011; potentiation, % at 8.33 µM; active means potentiation above 80%; inconclusive means 30% to 80%; inactive means below 30%; note: 0% is about no effect
# Target sequence (Q8NER1 whole entry, looked up): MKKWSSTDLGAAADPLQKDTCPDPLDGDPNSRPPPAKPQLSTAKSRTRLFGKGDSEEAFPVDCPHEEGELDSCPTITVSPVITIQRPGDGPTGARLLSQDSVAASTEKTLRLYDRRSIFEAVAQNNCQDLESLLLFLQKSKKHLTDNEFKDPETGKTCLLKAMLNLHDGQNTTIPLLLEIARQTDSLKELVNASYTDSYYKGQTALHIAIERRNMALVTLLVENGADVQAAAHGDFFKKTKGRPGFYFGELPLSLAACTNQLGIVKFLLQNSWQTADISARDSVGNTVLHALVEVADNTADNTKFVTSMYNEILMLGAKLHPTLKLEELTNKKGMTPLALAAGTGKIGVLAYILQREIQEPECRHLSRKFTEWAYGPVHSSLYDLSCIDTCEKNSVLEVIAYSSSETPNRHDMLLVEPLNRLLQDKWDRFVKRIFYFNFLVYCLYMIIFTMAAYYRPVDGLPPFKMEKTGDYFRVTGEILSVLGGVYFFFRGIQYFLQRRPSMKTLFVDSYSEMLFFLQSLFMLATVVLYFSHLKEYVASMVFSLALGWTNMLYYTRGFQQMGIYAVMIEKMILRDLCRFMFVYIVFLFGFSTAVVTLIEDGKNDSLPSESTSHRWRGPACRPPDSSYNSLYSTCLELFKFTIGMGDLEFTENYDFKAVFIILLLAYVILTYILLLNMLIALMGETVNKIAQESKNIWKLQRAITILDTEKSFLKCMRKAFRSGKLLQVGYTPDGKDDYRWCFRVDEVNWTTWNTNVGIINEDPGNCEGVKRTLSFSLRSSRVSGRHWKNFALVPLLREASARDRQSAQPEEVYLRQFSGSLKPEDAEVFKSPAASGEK
#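 TRPV1-expressing cells were cultured overnight at 35.5C and loaded with Fluo-8 calcium dye for 40 to 90 min at room temperature. After a 10 s baseline, compound was added and calcium influx was read kinetically for 3 min (ex 480/em 520 nm).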
# * marks the source's active call; other numbers are inactive results; ? = inconclusive; nt = not tested or not shown; & = joins results of further samples; [ ] = dose if it differs, or a comment.
SMILES,CtBP-E1A inh,Sfp PPTase inh,ClpP mod,Menin MLL FP FL,gsp ag,gsp antagonist,TRPV1 PAM
O=C(CSc1ccccc1C(=O)O)NCc1ccc(Cl)cc1,-4,0%,-4.9%,-1.2,-24%[15.4 µM],2%,4
O=C(NNc1c2ccccc2nc2ccccc12)c1ccc(O)cc1,-75*,-23%,4.1%,3.9,-30%,35µM*,-17
CCOC(=O)C1=C(N)N(c2ccccc2)C(=O)C1,-2,6%,?,2.9,-20%,-2%,-1
C=CCONC(=O)Cc1ccccc1,-9,nt,-1.9%,nt,nt,3%,nt
COc1ccc(/C=N/NC(=O)c2ccc(NC(C)=O)cc2)cc1COc1ccc(F)cc1F,3,-22%,4.0%,-5.3,17%,-5%,2
CCOC(=O)N1CCN(S(=O)(=O)c2ccc3c(c2)OCC(=O)N3)CC1,-1,7%,-2.4%,-4.6,0%,-4%,6
CN(C)C(=O)Nc1ccccc1,2,9%&26%,nt,-1.3&0.3,0%,10%,-4
COc1cc(CCC(=O)Nc2ccc(S(=O)(=O)N3CCOCC3)cc2)cc(OC)c1OC,nt,nt,1.7%,nt,12%,5%,-9
COC(=O)c1cc(C(=O)OC)n(Cc2ccc(F)cc2)c1C,3,0%,nt,2.1,?,10%,6
O=C(OCc1nc2ccccc2s1)c1cccs1,-2,-6%,0.5%,0.0,16%,12%,1
CC(=O)N1CCOc2ccc(S(=O)(=O)N3CCN(c4cccc(C(F)(F)F)c4)CC3)cc21,-14,2%,0.2%,-0.9,?,-16%,-6
CCc1ccccc1NC(=O)C1CCCN1C(=O)NCc1ccccc1 (centres undefined),5,16%,nt,?,8%[15.4 µM],6%,6
CCCCCCC(C)OC(=O)c1ccccc1C(=O)O (centres undefined),nt,16%,0.3%,6.2,57%,3%,8
COc1ccc(C(C(=O)NC2CCCC2)N(Cc2cccnc2)C(=O)c2snc(C(N)=O)c2N)cc1 (centres undefined),-15,8%,nt,-0.6,19%,-3%,-4
Cn1nnnc1SCC(=O)N1CCCCC1,1,5%,nt,5.4,?,-11%,7
COc1ccc(NC(=O)c2cccnc2N2CCCCC2)cc1,-3,23%,-1.0%,-1.5,10%,-5%,-7
CCc1ccc(N2C(=O)CC(N3CCN(c4ccccn4)CC3)C2=O)cc1 (centres undefined),-1,-21%,-2.3%,3.7,3%[15.4 µM],8%,-14
COc1ccc(-n2c(-c3cc(-c4ccccc4)sc3N)n[nH]c2=S)cc1,5,-20%,nt,-1.7,33%,-21%,14
Oc1c(C(Nc2ccccn2)c2cccnc2)cc(Cl)c2cccnc12 (centres undefined),-89*,-8%,-1.5%,1.6,-62%[inhibitor],-2%,5
CC(NC(=O)C(=O)N1CCCCC1)C(c1cccs1)N1CCN(c2ccccc2)CC1 (centres undefined),-1,-3%,-2.6%,-1.4,0%,-5%,?
O=C(O)c1ccc(Cl)c(S(=O)(=O)N(Cc2ccccc2)c2ccc(F)cc2)c1,-3,-27%,-1.3%,0.2,22%,-13%,0
COCCN(C(=O)C1=COCCO1)c1c(N)n(CC(C)C)c(=O)[nH]c1=O,-3,nt,-2.0%,nt,14%,10%,9
COc1ccccc1C(=O)Nc1cccc(NC(C)=O)c1,9,10%,-0.8%,0.9,3%,13%,-22
COc1cccc(CN(C)C(=O)CSCC(=O)Nc2ccc(C)cc2)c1OC,-11,nt,-18%,nt,-1%[15.4 µM],-5%,-2
COCC(C)N=C1NN=C(c2cccs2)C(CC(=O)O)S1 (centres undefined),nt,35µM*,-0.1%,2.3,-36%[inhibitor],6%,21

# (cont.)
SMILES,CtBP-E1A inh,Sfp PPTase inh,ClpP mod,Menin MLL FP FL,gsp ag,gsp antagonist,TRPV1 PAM
COc1ccc(NC(=O)CNC(=O)c2nn(-c3ccc(OC)cc3OC)c(=O)c3ccccc23)c(OC)c1,6,7%,nt,-7.3,-14%,-18%,-1
COc1ccc(OC)c2c1C(=O)CC2C (centres undefined),3,nt,4.2%,nt,?,nt,nt
COc1ccc(/C=N/NC2=NS(=O)(=O)c3ccccc32)cc1OC,-13,-4%,nt,-14,?,-5%,0
CCO[C@@H]1OC(C(N)=O)=C[C@H](c2ccc(C(F)(F)F)cc2)[C@H]1CCCO,9,-6%,-0.7%,-0.3,?,-1%,19
O=c1c2ccccc2c(=O)n(-c2ccccc2)n1CCCCBr,2,nt,nt,nt,4%[15.4 µM],-10%,nt
Cc1cccc(C)c1-n1nnnc1-c1cnccc1C(F)(F)F,5,14%,nt,-2.5,-9%,3%,7
CCCOc1ccc(C(=O)Nc2cc(-c3nn4c(C)nnc4s3)ccc2C)cc1,7,-7%,-1.4%,-1.0,0%,1%,nt
CCNC(=S)N(CCCN(CC)CC)Cc1cc2cc3c(cc2[nH]c1=O)OCO3,-5,20%,4.1%,-2.6,?,8%,4
O=C(/C=C/c1ccc2c(c1)OCO2)Nc1nncs1,3,4%,-23%,-6.9,-45%[inhibitor],8%,-6
CCc1nnc(NC(=O)c2ccc(N3C(=O)CCC3=O)cc2)s1,10,-1%,-2.9%,5.1,3%,-4%,8
NS(=O)(=O)c1cc2c(cc1C(F)(F)F)NCNS2(=O)=O,10,18%&8%,4.2%,-4.1,nt,4%,-4
CCCN(CCC)C(=O)Cc1ccc(F)cc1,-7,-15%,nt,-0.6,-1%[15.4 µM],4%,-6
COc1cnc(SC)nc1Nc1ccc(C#N)cc1,nt,3%,?,-3.5,-11%,-15%,-9
Cc1cc2oc(C(=O)NCc3ccc(S(N)(=O)=O)cc3)c(C)c2cc1C,-6,-1%,?,-0.5,?,6%,26
COc1ccc(OCC(=O)N(Cc2sccc2C)C2CCS(=O)(=O)C2)cc1 (centres undefined),1,23%,-0.7%&-3.2%,nt,?,4%,13
Cc1ccc(C(=O)NCC(=O)OC(C)C(=O)NC2CCCCC2C)cc1C (centres undefined),5,nt,nt,nt,18%[15.4 µM],7%,4
CCSc1nc2c(c(=O)[nH]1)C(c1ccncc1)C(C(=O)OC)=C(C)N2 (centres undefined),0,16%,-4.0%,4.8,-1%,-13%,2
COC(=O)Cn1c(SCc2ccccc2)nc2ccccc21,15,13%,-26%,-0.5,21%,0%,-15
CCC1(C)NC(=O)N(/N=C/c2ccc(C)s2)C1=O (centres undefined),8,11%,-3.7%,9.4,4%,1%,0
COc1ccc2oc(C(=O)OCC(=O)Nc3cc(S(=O)(=O)N4CCOCC4)ccc3C)c(C)c2c1,-3,nt,nt,nt,3%[15.4 µM],5%,11
CCC1(c2ccccc2)NC(=O)N(CC(=O)N(C)CC(=O)Nc2c(C)cccc2C)C1=O (centres undefined),5,9%,1.0%,nt,-4%[15.4 µM],-14%,1
CCCCN(Cc1ccccc1)S(=O)(=O)c1cc(Br)cc2c1N(C(C)=O)C(C)C2 (centres undefined),7,-10%,0.1%,2.0,-19%,?,1
O=C(c1ccccc1)N1CCN(C(=O)c2ccc3c(c2)OCO3)CC1,2,16%,nt,1.1,15%[15.4 µM],4%,16
CC(CC(=O)NC1CCCCC1)S(=O)(=O)c1ccc2c(c1)CCN2C(=O)C1CC1 (centres undefined),1,12%,-3.1%,nt,-50%[inhibitor],-3%,-20
O=C(CCNS(=O)(=O)c1ccc(Br)cc1)NCc1ccc(F)cc1,8,6%,-2.5%,0.9,3%,-1%,2

# (more compounds)
SMILES,CtBP-E1A inh,Sfp PPTase inh,ClpP mod,Menin MLL FP FL,gsp ag,gsp antagonist,TRPV1 PAM
COc1ccc2nc(C)cc(N/N=C/c3ccc(F)cc3)c2c1,-10,45µM*,nt,3.4,-15%,12%,8
CCCC(=O)N(Cc1cc(=O)[nH]c2ccccc12)c1ccccc1,3,-1%,nt,-10,-25%[15.4 µM],1%,-5
Cc1c(CC=C(Cl)Cl)c(=O)[nH]c2c(C)cccc12,-11,8%,nt,0.3,-3%[15.4 µM],11%,?
COc1ccccc1NC(=O)Cn1cnc2c(nnn2-c2ccc(C)cc2)c1=O,2,-17%,-0.8%,2.3,-4%,-17%,-19
Cc1ccccc1OCC(O)Cn1c(Br)nc2c1c(=O)[nH]c(=O)n2C (centres undefined),-7,2%,-1.8%,0.5,-27%,-13%,-1
CCOC(=O)C1CCN(c2c(NCCCN3CCN(Cc4ccccc4)CC3)c(=O)c2=O)CC1,-1,25%,-2.2%,-0.9,-38%[inhibitor],5%,-13
COc1cc(CC(NC(C)=O)C(=O)NC2CCN(c3nc(OC)nc(OC)n3)CC2)cc(OC)c1 (centres undefined),5,23%,nt,4.2,-12%[15.4 µM],16%,-9
CC1=Nn2c(nnc2-c2n[nH]c3c2CCC3)SC1,-17,-16%,-1.2%,2.6,-38%[inhibitor],13%,11
COc1ccc(CCNC(=O)c2ccc(N3CCCCS3(=O)=O)cc2)cc1OC,-7,6%,-2.3%,nt,-49%[inhibitor],4%,5
CC(C)N(C(C)C)S(=O)(=O)c1ccc(NN)nc1,0,79µM*,-1.3%,5.4,-21%,3%,?
Cc1cccc(C)c1NC(=S)NC(C)CCc1ccccc1 (centres undefined),0,15%,-2.7%,1.4,5%[15.4 µM],4%,-7
O=C1COc2ccc(C(=O)COC(=O)CCSc3ccc(Cl)cc3)cc2N1,25,-14%,nt,2.5,-7%[15.4 µM],-1%,-27
NC(=O)C(c1ccc(Br)cc1)c1ccc(C(=O)c2ccccc2)cc1 (centres undefined),-3,1%,nt,8.1,-19%,-18%,3
CCC1Sc2ccc(S(=O)(=O)CCC(=O)Nc3cc(C)ccn3)cc2NC1=O (centres undefined),nt,2%,-4.3%,nt,6%,-1%,6
O=C1CC2(CCCCCC2)Oc2ccc(Cl)cc21,8,nt,3.3%,nt,-4%,5%,nt
